Insulin prom inh = TRM-6 insulin promoter activity inhibition. 0.9% of 130,000 active. AID 1273. inhibition, % at 2 µM. TRM-6 cells (human fetal islet line), insulin promoter-eGFP reporter, imaging; reporter expression induced with tamoxifen;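 active = inhibition above the mean plus 3 SD, with well images judged a real hit on visual review, cut at about 60% in these data, passing the limit was not always enough; inconclusive = inhibition over the cutoff but images rejected on review; inactive = inhibition not above the cutoff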
HSV augment = HSV replication enhancement | AID 1956 | maximum fold increase | 0.005% of 220,000 active | HSV replication augmentation in cells, fold increase;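 active = peak rise of 1.5-fold or more in the series; inconclusive = self-fluorescent or not available for retest; tested in PC3 cells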;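 note: first round at 10 µM; read as green reporter fluorescence; hits show the peak of a series up to 25 µM; 1 = signal of infected wells without compound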
PKD1 kinase inh = blocks activity of human protein kinase D1 | Q15139 | PKD1 kinase fluorescence polarization assay | inhibition, %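 (about 10 µM by stock and volumes)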 | 0.056% of 200,000 active;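 active = inhibition of 50% or more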;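 note: controls were vehicle for no effect and a reference inhibitor for full effect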
GALR2 ag = activates the human galanin receptor 2; GALR2-expressing cells, agonist activation read-out; 0.48% of 140,000 active; O43603; activation, %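 (tested at 5 µM)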;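 active = above mean plus 3 SD of all compounds, about 5% in these data, not always enough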;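 note: 0% = vehicle buffer wells and 100% = reference agonist at full effect; tested in CHO reporter cells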
Target sequence (O43603 whole entry, looked up): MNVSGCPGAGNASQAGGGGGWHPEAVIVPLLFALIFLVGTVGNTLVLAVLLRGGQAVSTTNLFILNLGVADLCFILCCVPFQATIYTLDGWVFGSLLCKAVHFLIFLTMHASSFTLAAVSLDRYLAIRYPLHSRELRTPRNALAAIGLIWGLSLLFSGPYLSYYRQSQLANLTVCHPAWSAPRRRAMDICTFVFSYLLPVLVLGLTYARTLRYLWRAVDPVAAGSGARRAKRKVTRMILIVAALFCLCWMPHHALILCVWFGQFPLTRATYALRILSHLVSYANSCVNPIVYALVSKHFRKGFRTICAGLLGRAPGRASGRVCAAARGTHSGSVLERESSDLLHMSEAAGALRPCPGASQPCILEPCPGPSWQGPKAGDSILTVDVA
RGS16-Gao HTS = RGS16-Galphao interaction regulator (human); 0.38% of 220,000 active; bead-based flow cytometry RGS16-Galphao binding, fluorescence; actives lie on both sides; binding response (% of control), % at 10 µM; O15492+P09471;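 active = below 25% or above 175%, edge rows of some plates excepted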;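 note: Galphao activated by GDP with aluminum fluoride before binding; 100% = wells without compound and 0% = beads without RGS; some results beyond the cut were filed as inactive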
Target sequence (O15492 whole entry, looked up): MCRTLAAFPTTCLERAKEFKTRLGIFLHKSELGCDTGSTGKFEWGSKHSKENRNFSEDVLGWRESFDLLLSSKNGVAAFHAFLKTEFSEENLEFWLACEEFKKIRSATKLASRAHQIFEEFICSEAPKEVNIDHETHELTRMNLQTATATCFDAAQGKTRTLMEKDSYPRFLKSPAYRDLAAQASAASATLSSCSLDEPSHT
Target sequence (P09471 whole entry, looked up): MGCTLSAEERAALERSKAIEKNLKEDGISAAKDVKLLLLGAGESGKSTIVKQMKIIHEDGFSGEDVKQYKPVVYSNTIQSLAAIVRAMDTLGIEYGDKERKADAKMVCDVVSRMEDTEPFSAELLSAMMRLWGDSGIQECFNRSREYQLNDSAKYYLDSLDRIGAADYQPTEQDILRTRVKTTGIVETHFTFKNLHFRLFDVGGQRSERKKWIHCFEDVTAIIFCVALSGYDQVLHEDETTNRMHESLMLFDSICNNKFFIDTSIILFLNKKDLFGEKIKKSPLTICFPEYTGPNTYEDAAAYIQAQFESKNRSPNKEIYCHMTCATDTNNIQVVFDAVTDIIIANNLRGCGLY
Insulin prom inh cell count = also measured in Insulin prom inh; calls as there; normalized cell count, %; measured here: cell count, toxicity; reference of the scale not given here;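 cells exposed to compound for 48 h; stained nuclei by imaging scaled within each plate; lower means fewer cells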
HSV augment primary fold = recorded beside HSV augment, whose call it bears; fold increase; compound at 10 µM; measured here: primary screen fold increase 10 uM; tested in PC3 cells;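 GFP signal in the first replicate; 1 = infected wells without compound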
* hit, by the source's call; i = inactive; ? = inconclusive; / = no result given.

SMILES	Insulin prom inh	Insulin prom inh cell count	HSV augment	HSV augment primary fold	PKD1 kinase inh	GALR2 ag	RGS16-Gao HTS
Cc1ccc(NC(=O)c2ccc(C(C)(C)C)cc2)cc1[N+](=O)[O-]	10.5	126.2	i	1.01	-13.8	0.1	106.2
COc1cccc(NC(=O)CCC(=O)NCc2ccco2)c1	-1.4	87.7	i	0.98	-6.8	-1.6	99.4
CCCn1c(=O)c(-c2ccccc2)c(O)c2ccccc21	/	/	i	0.94	-21.2	-3.6	108.9
CCCCCSc1nnc(C)c(=O)[nH]1	9.1	78.7	i	0.98	-3.4	-2.9	117.8
Cc1noc(C)c1S(=O)(=O)N1CCC(C(=O)N2CCC(C)CC2)CC1	-42.9	113.8	i	1.04	9.0	-2.2	100.4
Cc1nn(C)cc1CN1CCCC(C(=O)c2ccc(-c3ccccc3)c(F)c2)C1 (stereo unspecified)	/	/	i	0.73	-9.9	/	98.5
COc1ccccc1NC(NC(=O)c1ccco1)C(=O)c1ccccc1 (stereo unspecified)	/	/	i	1.05	-4.7	-1.7	98.7
FC(F)(F)c1ccc(Sc2nnc(-c3cccs3)n2CC2CCCO2)nc1 (stereo unspecified)	-13.2	70.3	i	0.7	1.6	-0.1	103.8
Oc1c(/C=N/Nc2cccc3cccnc23)ccc2ccccc12	73.3*	153.9*	i	0.96	-5.7	1.8	80.0
CN(C)CCN(C(=O)/C=C/c1cccs1)c1nc2ccc(F)cc2s1	/	/	i	0.76	4.7	-0.3	98.9
N#C/C(=C\c1cn(CCOc2ccccc2)c2ccccc12)C(=O)NCc1cccs1	-16.7	58.9	i	0.81	-7.7	-1.3	130.1
COCCn1c(=NC(=O)c2sc3ccccc3c2Cl)sc2cc(S(N)(=O)=O)ccc21	-20.0	103.0	i	0.84	-2.8	0.3	101.9
Cc1ccc(-c2csc(NC(=O)CCNC(=O)c3ccc(Cl)cc3)n2)cc1	/	/	i	0.98	-2.6	/	102.3
Cc1ccc(-c2noc(CCC(=O)Nc3cccc(C#N)c3)n2)cc1	25.6	141.3	i	0.84	-0.4	-1.6	99.0
C=CCn1c(O)c(N=Nc2ccccc2C)c2ccccc21	-100.0	47.8	i	0.78	-0.8	/	118.1
CN1c2ccccc2Oc2nnc(N3CCN(Cc4ccccc4)CC3)cc21	/	/	i	0.82	5.5	/	121.2
OCCN(CCO)c1ccc(C(c2ccccc2Cl)c2ccc(N(CCO)CCO)cc2Cl)c(Cl)c1	-11.8	119.3	i	1.07	12.3	-0.4	102.4
Cc1ccc(/C=C2\SC(=S)N(/N=C/c3cc([N+](=O)[O-])ccc3O)C2=O)o1	16.7	69.5	i	1.02	-0.4	/	88.6
Cc1cccc(NC(=S)N2CCN(C(=O)C3CCCO3)CC2)c1 (stereo unspecified)	-16.7	135.9	i	0.92	-1.0	-1.8	112.8
COc1ccccc1N1CCN(c2ncc(C(=O)N3CCN(c4cccc(Cl)c4)CC3)c3ccccc23)CC1	-55.0	141.8	i	0.95	2.2	/	107.9
COc1ccc(CCn2c(O)cc3nn(-c4nc5ccccc5s4)c(=O)c-3c2C)cc1	/	/	i	1.08	/	/	92.0
CCOC(=O)C1(Cc2ccccc2C)CCCN(C(=O)c2ccccn2)C1 (stereo unspecified)	/	/	i	1.06	-3.8	/	103.6
Clc1ccc(CSc2nnc(Cn3cnc4ccccc43)o2)cc1	0.0	101.9	i	0.86	-5.0	-1.1	99.8
CCCOc1ccc(Cc2c(COCC)[nH]c(=S)[nH]c2=O)cc1	-13.3	74.7	i	0.9	1.6	/	108.3
CC(C)CC(=O)N1CCN(Cc2cccc(F)c2)CC1	-26.9	87.5	i	0.963	-3.1	-2.0	94.2

Compound profiles (already shown). Order of values: Insulin prom inh	Insulin prom inh cell count	HSV augment	HSV augment primary fold	PKD1 kinase inh	GALR2 ag	RGS16-Gao HTS
CCCOc1ccc(Cc2c(COCC)[nH]c(=S)[nH]c2=O)cc1 reads -13.3	74.7	i	0.9	1.6	/	108.3
N#C/C(=C\c1cn(CCOc2ccccc2)c2ccccc12)C(=O)NCc1cccs1 reads -16.7	58.9	i	0.81	-7.7	-1.3	130.1
COc1ccccc1NC(NC(=O)c1ccco1)C(=O)c1ccccc1 (stereo unspecified) reads /	/	i	1.05	-4.7	-1.7	98.7

The results go on:
SMILES	Insulin prom inh	Insulin prom inh cell count	HSV augment	HSV augment primary fold	PKD1 kinase inh	GALR2 ag	RGS16-Gao HTS
O=C1Nc2ccccc2N(O)N1c1ccc(S(=O)(=O)Nc2ccccn2)cc1	0.0	53.7	i	0.88	6.1	/	118.6
O=C(NN=C1CCC(c2ccccc2)CC1)c1ccccc1-n1cccc1 (stereo unspecified)	/	/	i	0.93	-5.6	-0.1	82.1
Cc1onc(-c2ccccc2)c1C(=O)NCC1COc2ccccc2O1 (stereo unspecified)	-14.3	156.1	i	0.96	2.6	-0.7	100.7
Cc1cc2cc(CNC(=O)C3CCCC3)ccc2n1C	/	/	i	0.99	/	/	102.7
CCCOCC1CC(CCc2nc(=S)[nH][nH]2)C(=O)O1 (stereo unspecified)	14.3	126.2	i	1.02	-3.0	-1.5	98.2
COC(=O)CN1C(=O)C(O)=C(C(C)=O)C1c1ccc([N+](=O)[O-])cc1 (stereo unspecified)	5.6	138.3	i	1.1	-8.7	-1.3	99.7
Cc1nn(C)c(Oc2ccccc2)c1CCNC(=O)CC(C)C	/	/	i	1.11	-1.5	/	96.5
O=C(c1cc2ccccc2oc1=O)N(Cc1cccs1)CC1CCCO1 (stereo unspecified)	-8.7	95.2	i	1	5.7	/	103.3
O=C(COC(=O)[C@H](Cc1c[nH]c2ccccc12)NC(=O)c1ccc(Cl)cc1)Nc1ccc2c(c1)OCO2	20.8	80.4	i	0.99	-2.9	-0.1	130.5
CC(=O)NCCOc1ccc2oc3ccccc3c2c1	-41.4	153.8	i	0.89	-10.4	-3.4	97.8
Oc1ccc(C=Nc2ccc3ncccc3c2)c(O)c1	/	/	?	/	-4.3	-1.4	104.8
CC(C)NC(=O)NC(=O)COC(=O)c1cccc(S(=O)(=O)N2CCCCC2)c1	0.0	133.2	i	0.91	-10.7	-0.2	105.8
COc1ccc(NC2c3ncccc3C(=O)N2Cc2ccccc2)c(OC)c1 (stereo unspecified)	53.3	145.4	i	0.83	-8.2	0.5	96.0
Nc1cccc2c1C(=O)N(C(=O)/C=C/c1ccc(F)cc1)C2=O	/	/	i	0.96	-7.1	/	98.3
CCOc1ccccc1C(=O)N(C)Cc1cc2ccccc2[nH]c1=O	13.8	94.4	i	0.81	-9.5	-3.1	89.6
O=C(NCc1cccc(Cl)c1)c1ccc(-c2csnn2)cc1	/	/	i	0.98	/	/	87.5
CC(C)(C)c1cc(C(F)(F)F)n2ncc(-c3ccccc3)c2n1	/	/	i	0.91	3.2	/	98.3
O=C(c1ccc(COc2ccccc2[N+](=O)[O-])o1)N1CCCCC1	/	/	i	0.92	-2.1	-2.2	75.0
CCOC(=O)C1=NN(c2ccc(OC)cc2)C(c2ccccc2)CC1=O (stereo unspecified)	-327.8	69.6	i	0.79	-4.9	-2.0	103.6
O=c1c2ccccc2nc2n1C(CSc1ccc(Cl)cc1)CN2 (stereo unspecified)	3.2	140.4	i	0.93	2.7	-0.3	101.0
COc1ccc(O)c(-c2cc(-c3cccs3)[nH]n2)c1	47.2	61.3	i	0.94	-5.3	-3.2	99.2
c1ccc(C2C3=C(Nc4ncnn42)c2ccccc2CCC3)cc1 (stereo unspecified)	/	/	i	0.85	-7.7	-2.0	103.7
Nc1nc(SCC(=O)N2CCN(S(=O)(=O)c3ccc(Cl)cc3)CC2)n[nH]1	/	/	i	0.92	-3.7	/	84.4
COC(CNc1ncnc2c1cnn2C)OC	0.0	122.3	i	0.99	-3.4	/	104.9
CCC(=O)Nc1cccc(NC(=O)c2cc3ccccc3o2)c1	0.0	154.3	/	/	6.4	-0.6	103.2
Next section.
SMILES	Insulin prom inh	Insulin prom inh cell count	HSV augment	HSV augment primary fold	PKD1 kinase inh	GALR2 ag	RGS16-Gao HTS
CCN(CC)c1ccc(/C=N/OCC(=O)N2CCCc3ccccc32)cc1	/	/	i	1.07	-6.2	-1.3	101.5
CCCCCCNC(=O)C(C#N)c1nc2ccccc2nc1N1CCCC1 (stereo unspecified)	/	/	i	1.1	15.1	1.3	101.7
COc1ccc2nc(-c3ccco3)c(-c3ccco3)nc2c1	-22.6	90.2	i	0.93	16.8	0.3	77.8
CC(CCc1ccccc1)NC(=O)COC(=O)c1cccc2ccccc12 (stereo unspecified)	0.0	178.7	i	1.01	-2.4	-0.8	100.2
O=[N+]([O-])c1ccc(CSc2nnc(SCc3ccccc3)s2)cc1	-14.3	84.1	i	1.29	9.5	-0.1	63.6
CC(Oc1ccc(/C=N/NC(=O)Cc2cccc3ccccc23)cc1)C(=O)O (stereo unspecified)	/	/	i	0.97	/	/	103.4
Cc1ccc(-c2cc(-c3ccc(F)cc3)c(C#N)c(N)n2)o1	-35.7	102.5	?	/	-13.0	3.7	86.7
CCn1c2ccccc2c2cc(CN3CCN(S(=O)(=O)Cc4ccccc4)CC3)ccc21	-24.1	99.8	i	1.02	6.4	0.2	121.9
COc1ccc(CC(=O)Nc2ccc3c(C)cc(=O)oc3c2)cc1OC	14.8	100.9	i	0.79	-0.3	-0.2	70.0
COc1ccccc1NS(=O)(=O)c1cccc(C(=O)N/N=C/c2ccc3c(c2)OCCO3)c1	16.7	90.9	i	0.95	7.6	-0.7	93.9
COC(=O)c1cc(NS(=O)(=O)c2ccc(N3CCOCC3)c(N)c2)cc(C(=O)OC)c1	/	/	i	0.98	1.4	0.4	100.7
CC(C)OCCCNc1ncnc2c1[nH]c1ccccc12	31.2	145.1	i	0.83	2.2	-3.8	102.0
O=C(c1cccc(Oc2ccc([N+](=O)[O-])cc2Cl)c1)N1CCCCC1	-20.0	79.2	i	1.02	4.6	/	103.1
CCCn1c2c(c(O)c(C(=O)NCCCN(CC)CC)c1=O)CCCC2	34.9	94.0	i	0.78	-5.8	-0.2	43.2
O=C(OCc1cccc([N+](=O)[O-])c1)c1ccncc1	-25.0	88.2	i	0.95	0.9	/	106.6
CN(C)S(=O)(=O)c1cc(NC(=O)CN2C(=O)NC3(CCCc4ccccc43)C2=O)ccc1Cl (stereo unspecified)	2.6	87.7	i	0.91	1.2	0.4	125.6
O=C(Nc1ccccn1)C(NS(=O)(=O)c1cccc2nsnc12)c1ccccc1 (stereo unspecified)	-85.7	120.9	i	0.9	7.5	-2.4	100.5
O=C(COc1ccc(Cl)cc1)Nc1ccc(N2CCN(C(=O)c3ccco3)CC2)cc1	-28.6	102.7	i	0.63	1.9	-2.2	81.3
CC(C)NC(=O)C1CCN(C2CCN(Cc3nc4ccccc4s3)CC2)CC1	/	/	i	0.9	-6.3	/	103.9
CCCOc1ccccc1-c1nc(SCCC(=O)O)n[nH]1	-6.2	114.1	i	1.18	-4.8	-0.6	101.6
N=C1SC(CC(=O)Nc2ccc([N+](=O)[O-])cc2)C(=O)N1c1ccccc1 (stereo unspecified)	/	/	i	0.96	/	/	108.8
Cc1ccc(C(=O)N/C(=C/c2cccnc2)C(=O)NCc2ccco2)cc1	28.6	115.1	i	0.95	-0.3	-1.2	105.3
Oc1ccccc1-c1nc2c3ccccc3c3ccccc3c2[nH]1	/	/	i	0.9	/	/	102.9
COc1ccc(CNC(=O)COC(=O)c2ccc3c(c2)OCCO3)cc1	-19.4	106.8	i	0.93	-1.2	-2.7	101.6
O=C(O)CCCCCN1C(=O)C(O)=C(C(=O)/C=C/c2ccccc2)C1c1ccc2c(c1)OCO2 (stereo unspecified)	/	/	i	1.02	-3.1	/	110.9
The listing continues.
SMILES	Insulin prom inh	Insulin prom inh cell count	HSV augment	HSV augment primary fold	PKD1 kinase inh	GALR2 ag	RGS16-Gao HTS
COc1ccc(CCNC(=O)c2csc3c2CCCC3)cc1OC	2.6	168.8	i	0.95	-8.6	/	101.2
CCN1CCN(CCOc2cccc(Cl)c2Cl)CC1	/	/	i	0.97	-0.5	/	109.3
O=C1Nc2ccc(S(=O)(=O)N3CCCCCC3)c3cccc1c23	/	/	i	0.88	-0.7	-1.4	53.1
COc1ccccc1NC(=O)/C(=C/c1cccc([N+](=O)[O-])c1)c1ccccc1	33.3	110.9	i	1.01	0.8	-1.0	92.5
O=C(NCc1ccc(Cl)cc1)c1ccc2nc[nH]c2c1	8.0	88.0	i	0.93	3.0	-0.4	112.2
COc1ccc(CNc2nc3c(c(=O)n(Cc4ccc(Br)cc4)c(=O)n3C)n2C)cc1	6.1	88.1	i	0.96	7.1	-1.2	99.5
Cc1ccccc1N1C(=O)CC(N2CCC(C(N)=O)CC2)C1=O (stereo unspecified)	39.5	74.3	i	0.8	-4.4	-2.8	94.3
COc1ccc(S(=O)(=O)NCCc2nnc3ccc(SCc4cccnc4)nn23)cc1	/	/	i	1.14	4.0	/	99.5
CSc1nc2cc(Oc3cccc(Cl)c3Cl)c(Cl)cc2[nH]1	/	/	i	0.97	/	/	99.8

Rows are unselected. About 1.2% of those tested had a hit in this group.
